Screens (PubChem)
BasE inh = BasE siderophore biosynthesis inhibition | purified BasE, fluorescence polarization binding displacement | inhibition, % (test concentration not listed) | 84,000 tested, 0.1% active | AID 485350;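 active = both replicates above 25% with normal brightness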;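 note: 0% = negative plate control signal and 100% = positive plate control signal; stock transfer was 100 nL into about 30 µL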
LANA-nucl inh = LANA-nucleosome interaction inhibition | z-score (test concentration not listed) | FITC-LANA1-23 / chicken nucleosome fluorescence polarization; active compounds read low | 51,000 tested, 0.3% active;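 active = both repeat wells score below -2 in polarization z-score versus plate sample wells, excluding overly bright wells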;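 note: 100 nL library stock added to about 30 µL; numbers are from one replicate; some results filed as inactive read as strong as hits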
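System – purified chicken nucleosomes with FITC-labelled LANA N-terminal peptide (1-23) · Amount – 240 nM purified chicken nucleosomes (480 nM peptide binding sites), final · Also added – 50 nM FITC-LANA1-23 probe · Medium – TEN-BT buffer, pH 7.5 · Incubation – compound with peptide–nucleosome mix 10–45 min at room temperature · Detection – fluorescence polarization, ex 480 nm, em 535 nm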
* marks the source's active call; other numbers are inactive results; nt = not tested or not shown.

SMILES,BasE inh,LANA-nucl inh
COC(=O)c1ccc(OC(=O)C(C)C)cc1,2.1,-0.44
CCn1c(SCc2cc(=O)oc3cc(O)ccc23)nc2ccccc21,-0.3,nt
O/N=C/c1cc2c(cc1Br)OCO2,nt,-0.34
O=C(Nc1n[nH]c(C2CCCCC2)n1)C1CCCCC1,4.2,0.19
O=C(COc1ccc(Cl)cc1)CC(=O)c1ccc(Cl)cc1,0.1,nt
Nn1c(CCC2CCCCC2)n[nH]c1=S,1.3,nt
CC(=O)N[C@@H](C)C(=O)N1CCN(S(=O)(=O)c2ccc(Cl)cc2)CC1,-2.9,nt
CC1(C)C2CCC1(CS(=O)(=O)N1CCCc3ccccc31)C(=O)C2 (stereo not given),2.9,-0.24
CCOC(=O)c1c(Cl)nc2ccccc2c1Cl,0.0,0.28
CN(C)c1ncc(C(=O)O)cn1,1.9,-1.6
O=C(c1ccc2cn[nH]c2c1)N1CCC2(CC1)OCCO2,-1.1,-0.091
Nn1c(SCC(=O)NCc2ccc3c(c2)OCO3)nnc1C1CC1,5.7,nt
Clc1ccc(CSc2nncn2-c2ccc3c(c2)OCCO3)cc1,nt,0.84
CC1CCCN(CCCNS(=O)(=O)c2ccc(-c3ccc(=O)[nH]n3)o2)C1 (stereo not given),0.5,nt
COC(=O)CC1(C(=O)OC)Oc2ccc(Br)cc2C(=O)N1c1ccc(F)cc1F (stereo not given),0.3,nt
CC(C)C(Sc1nnc(-c2ccccc2)n1-c1ccccc1)C(=O)NC(N)=O (stereo not given),-0.6,nt
C#CCOC(=O)Nc1ccc(Oc2ccc(Cl)cc2)nc1,-2.1,0.8
CCN(CC)S(=O)(=O)c1ccc(-c2cn3ccccc3n2)cc1,-3.8,nt
O=C(c1noc2c1CCc1sccc1-2)N1CCCCC1,1.4,-0.83
O=C1CCC(=O)N1N1C(=O)c2ccccc2C1=O,0.1,-0.54
Cn1c(=O)[nH]c(=O)c2cc(C(=O)c3cc(F)ccc3O)cnc21,-0.4,nt
O=C(OCc1cc(=O)oc2cc(O)ccc12)c1ccc(Br)o1,0.5,nt
Cc1cc(=O)[nH]n(-c2ccccc2)c1=O,0.0,0.44
NC(=O)C1(c2ccccc2)CCCC1,2.0,0.84
Cc1ccc(CN2CC(C(=O)NC(c3nc4ccccc4[nH]3)C(C)C)CC2=O)cc1 (stereo not given),4.7,nt
CC(C)(C)C(=O)N1CCC(C(=O)NCc2ccco2)CC1,0.3,nt
COc1ccccc1N(C)S(=O)(=O)c1ccc(C(=O)N=c2c3cnn(-c4ccccc4)c3nc3n2CCCCC3)cc1,2.7,nt
CCC(=O)ONc1nc(C)cc(C)n1,4.2,0.7
CC(OC(=O)c1ccncc1)C(=O)Nc1ccc(N2CCOCC2)cc1 (stereo not given),1.4,nt
Cc1cc(-c2ccc(C)c(S(=O)(=O)N(CC(C)C)CC(C)C)c2)on1,0.9,nt

Additional records
SMILES,BasE inh,LANA-nucl inh
O=C(CCc1nnc2c(=O)n(-c3cccc(F)c3)ccn12)NCCC1=CCCCC1,1.2,-0.5
O=C1C(CO)NC(=S)N1c1ccccc1 (stereo not given),0.2,-0.29
CC(=O)Nc1ccc(-c2nc3ccccc3[nH]2)cc1,-0.6,-0.32
CC(C)C(NC(=O)c1ccc(F)cc1)C(=O)N1CCN(Cc2ccccc2)CC1 (stereo not given),-2.8,nt
Cc1cnc(C(=O)OCC(=O)c2ccc3c(c2)CCCC3)cn1,-2.8,nt
CC(C)C(=O)N1N=C(c2ccco2)CC1c1cn(-c2ccccc2)nc1-c1ccccc1 (stereo not given),-1.9,0.46
CC(C)NC(=S)NCc1cccc(Cl)c1,-3.0,nt
CCN(CC)C(=S)NC(=O)Cc1ccccc1,1.8,-1.4
O=C(O)COCC(=O)Nc1ccc2c(c1)C(=O)OC2,1.7,nt
CC(=O)N1SC(N)=NC1c1ccccc1 (stereo not given),-3.2,2.4
CN(C)C(=O)NC1CCS(=O)(=O)C1 (stereo not given),2.3,nt
CCC(C)NC(=O)c1c(O)c2cccc3c2n(c1=O)CCC3 (stereo not given),2.9,-0.48
Cc1ccc2nc(CCC(=O)N3CCCCCC3)[nH]c2c1,-4.4,2.6
COc1cccc(C=Nc2ccc3c(c2)ncn3C)c1OC,0.4,-0.45
Cc1cc(C)n(CC(O)CN2C(=O)NC(C)(C)C2=O)n1 (stereo not given),-0.1,nt
CC(C)=CCC[C@](C)(O)C1CC=C(C)CC1 (stereo not given in full),-2.3,-0.7
O=C(CCCc1nc(-c2ccccc2)no1)NCc1cccnc1,1.8,0.082
CSc1nnc(COc2ccc(Br)cc2)n1Cc1ccccc1,-0.4,1.3
CCN(C(=O)CSc1nnc(CSc2nc3ccccc3s2)n1C)C1CCCCC1,2.2,nt
FC(F)(F)c1cccc(CSc2ncn[nH]2)c1,nt,0.72
CC1(C)CC(=O)C(=CN2CCN(C(=O)c3ccco3)CC2)C(=O)C1,1.9,-0.48
O=C(COc1ccc(-c2ccccc2)cc1)N1CCN(c2ccccc2)CC1,4.5,-1.9
O=C(CSc1nnnn1-c1ccc(O)cc1)NC(=O)NC12CC3CC(CC(C3)C1)C2,-0.2,nt
Cc1cc(C)cc(Oc2coc3cc(OC(=O)C4CCCCC4)ccc3c2=O)c1,1.2,nt
Cc1ccc(OCCN2CCN(c3c4c(c(C#N)c5nc6ccccc6n35)CCC4)CC2)cc1,3.5,0.67
Cc1ccc(NC(=O)CN(C)C(=O)/C=C/c2ccco2)cc1,1.2,nt
CN1CCN(c2ccccc2NC(=O)c2cc3ccccc3o2)CC1,-4.6,0.19
COC(=O)c1ccccc1NC(=O)COC(=O)c1ccccc1F,0.6,nt
CC1CCCC(C)N1CCCNC(=O)Cn1c(=O)c2cccn2c2ccccc21 (stereo not given),-3.1,-1.5
O=C(CC1CC(=O)Oc2ccccc21)NCc1ccccc1 (stereo not given),2.4,-0.23

New compounds follow.
SMILES,BasE inh,LANA-nucl inh
O=C(COC(=O)c1cc(NS(=O)(=O)c2cccs2)ccc1O)NC1CCCC1,2.1,nt
Cn1c(O)c(N=NC=C2C(=O)CC(C)(C)CC2=O)c2ccccc21,-0.1,nt
CCOc1ccc(NC(=O)COC)cc1,0.7,-0.7
O=C1S/C(=C\c2cccs2)C(=O)N1Cc1ccccc1,-0.2,1
CCCCCn1nc(C)c(/C=N\NC(=O)c2cccs2)c1C,-0.6,0.19
COc1cccc(CN(Cc2ccco2)C(c2ccc(OC)c(OC)c2)c2nnnn2Cc2ccccc2)c1 (stereo not given),-2.3,-0.38
O=C(Nc1nccs1)c1ccc(CSc2ccccc2)o1,1.5,-0.79
O=C(Nc1ccc(Cl)cc1)NC1CC2CCC1C2 (stereo not given),0.6,-0.7
CC(C)C(=O)Nc1ccc(N2CCN(C(=O)c3ccccc3)CC2)cc1,-1.4,-1.3
O=C(O)c1cc(-c2ccccc2)on1,0.1,-1.2
Cc1nn(-c2ccccc2)c(Cl)c1CSc1nnc(N)s1,-4.1,nt
COc1ccc(CC(=O)NCC2COc3ccccc3O2)cc1OC (stereo not given),1.5,nt
COc1ccc(N2CCN(C(=S)Cc3ccccc3)CC2)cc1,15,nt
CCOC(=O)C1=C(c2ccccc2)Nc2ncnn2C1c1ccncc1 (stereo not given),2.3,-1.1
CN(C(=O)CSc1nnc(N)s1)c1ccccc1,2.6,-0.69
O=C1c2ccccc2C(=O)N1CCCSc1nccn1-c1cc(Cl)ccc1Cl,0.5,nt
CN(c1ccccc1C(=O)N1CCN(Cc2ccc3c(c2)OCO3)CC1)S(C)(=O)=O,0.2,-0.54
Cc1ccc(Cl)cc1N1CCN(CCNC(=O)CCc2nnc3n(CC(C)C)c(=O)c4ccccc4n23)CC1,-1.5,1.1
CCc1nnc(SCc2nc(-c3ccccc3F)oc2C)c2cc3oc(C)cc3n12,-1.3,0.91
CCCNC(=O)Nc1ccc(I)cn1,-0.2,-0.063
O=C(c1ccccc1Nc1ccc(SC(F)F)cc1)N1CCCCC1,-1.4,nt
CSc1sc(-c2ccn[nH]2)c(-c2ccco2)c1C#N,-0.3,nt
CCN(c1ccccc1)S(=O)(=O)c1ccc2[nH]c(=O)cc(C)c2c1,1.6,-0.27
Cc1cccn2c(=O)cc(CN3CCC(C(=O)N4CCOCC4)CC3)nc12,3.1,nt
CC1CN(C(=O)C(C)Sc2nnnn2C)CC(C)O1 (stereo not given),1.5,nt
Cn1cnnc1SCc1nc2ccccc2c(=O)n1CC#N,1.9,nt
Cc1ccc(NC2SC(=O)NC2=O)cc1Cl (stereo not given),-1.5,nt
COc1cc(/C=C2/C(=O)Nc3cc(Cl)ccc32)cc(OC)c1O,0.9,nt
CCOC(=O)c1cnc(Nc2ccccc2)nc1C(F)(F)F,2.3,-0.87
Cc1ccc(C(=O)Oc2c(CN3CCN(C)CC3)cc(Cl)c3cccnc23)cc1,1.8,nt

The results go on:
SMILES,BasE inh,LANA-nucl inh
COc1cc(C(=O)Nc2cccc(C#N)c2)ccc1OC(F)F,-9.4,nt
COc1cc(CN(C)C(C)C(=O)NC2CCCCC2)ccc1OC(F)F (stereo not given),1.4,nt
Cc1cc(C)c2c(=O)[nH]c(SCCOc3ccccc3)nc2n1,-2.2,nt
CCC(=O)n1c(=O)n(C(=O)CC)c2ccccc21,-1.4,nt
CC(=O)Nc1ccc(OC(=O)COc2cccc(C)c2)cc1,1.8,0.42
c1ccc2oc(SCc3nc4c5c6c(sc5ncn4n3)CCCC6)nc2c1,-1.3,0.88
CSc1nnc(Cn2c(=O)sc3ccccc32)n1-c1cccc(Cl)c1,-0.6,0.74
CC(C)N(C(C)C)S(=O)(=O)c1ccccc1,-0.1,-1.1
O=C(O)CNC(=O)c1cncc(O)c1,0.8,0.38
Cc1ccc(C(=O)OCC(=O)C23CC4CC(CC(C4)C2)C3)c(O)c1,-0.1,nt
O=S(=O)(Nc1ccccc1OC(F)F)c1cccc2nsnc12,0.3,nt
COCc1c(C(=O)OCC(=O)Nc2cc(-c3ccccc3)nn2-c2ccccc2)oc2ccccc12,-1.9,nt
Cc1ccccc1CNCc1cccs1,0.2,-0.3
N#Cc1cnc(SCC(=O)Nc2ccc(N3CCOCC3)cc2)nc1N,0.1,0.1
Cc1cccc(N2CCN(C(=O)Cn3cnc4onc(-c5ccc(F)cc5)c4c3=O)CC2C)c1 (stereo not given),-0.4,nt
CSc1sc(C(=O)O)c(C)c1S(=O)(=O)c1ccc(Cl)cc1,-0.9,nt
Clc1ccc(OCc2nc3ccccc3[nH]2)cc1,-2.2,-1
COCCNC(=O)c1c(N)n(/N=C/c2ccc(OC)c(OC)c2)c2nc3ccccc3nc12,nt,0.22
COc1ccc(C(=O)Cn2cnc3c(cnn3C(C)(C)C)c2=O)cc1,-1.4,0.5
Cc1cc(=O)oc2cc3c(cc12)OCCN3,0.7,0.11
N#C/C(=C\c1cn(Cc2ccc(C#N)cc2)c2ccccc12)C(=O)NCc1ccco1,3.3,0.069
O=S(=O)(Nc1cccc(Cl)c1)c1cccc(-n2cnnn2)c1,4.0,nt
CCOC(=O)c1cc(-c2ccc(OC)c(S(=O)(=O)NC3CC3)c2)on1,-7.7,2.5
C#CCN1C(=O)S/C(=C/c2ccc3c(c2)OCO3)C1=O,2.7,-0.3
O=C(N/N=C/C1=COCCO1)c1cccnc1,1.1,nt
N#Cc1ccccc1NC(=O)CNCC1CCCO1 (stereo not given),0.8,-1.2
Cc1cc(C)c(C#N)c(SCC(=O)N(CC(C)C)C2CCS(=O)(=O)C2)n1 (stereo not given),0.3,nt
CCCNS(=O)(=O)c1ccc(CCC(=O)NCC2CCCO2)cc1 (stereo not given),1.1,-0.23
CCCSc1nnc2c(n1)OC(c1ccc(N(C)C)cc1)Nc1ccccc1-2 (stereo not given),0.5,0.62

Of the compounds above, these have a cyano group:
SMILES,BasE inh,LANA-nucl inh
Cc1ccc(OCCN2CCN(c3c4c(c(C#N)c5nc6ccccc6n35)CCC4)CC2)cc1,3.5,0.67
CSc1sc(-c2ccn[nH]2)c(-c2ccco2)c1C#N,-0.3,nt
Cn1cnnc1SCc1nc2ccccc2c(=O)n1CC#N,1.9,nt
COc1cc(C(=O)Nc2cccc(C#N)c2)ccc1OC(F)F,-9.4,nt
N#Cc1cnc(SCC(=O)Nc2ccc(N3CCOCC3)cc2)nc1N,0.1,0.1
N#C/C(=C\c1cn(Cc2ccc(C#N)cc2)c2ccccc12)C(=O)NCc1ccco1,3.3,0.069
N#Cc1ccccc1NC(=O)CNCC1CCCO1 (stereo not given),0.8,-1.2
Cc1cc(C)c(C#N)c(SCC(=O)N(CC(C)C)C2CCS(=O)(=O)C2)n1 (stereo not given),0.3,nt

These rows are one share of the data; rates above refer to the full screens.
